Screening results as filed in PubChem BioAssay.
GIRK2 act – activators of human GIRK2 potassium channels. HEK293-GIRK2 thallium flux, Thallos fluorescence. calls only for hits at 25 µM. actives 0.05% (n = 63,000). AID 1259325, 2017;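 active = among the strongest 0.2% of first-round signals and kept after retests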;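 also: first round at about 10 µM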
Target sequence (P48051 whole entry, looked up): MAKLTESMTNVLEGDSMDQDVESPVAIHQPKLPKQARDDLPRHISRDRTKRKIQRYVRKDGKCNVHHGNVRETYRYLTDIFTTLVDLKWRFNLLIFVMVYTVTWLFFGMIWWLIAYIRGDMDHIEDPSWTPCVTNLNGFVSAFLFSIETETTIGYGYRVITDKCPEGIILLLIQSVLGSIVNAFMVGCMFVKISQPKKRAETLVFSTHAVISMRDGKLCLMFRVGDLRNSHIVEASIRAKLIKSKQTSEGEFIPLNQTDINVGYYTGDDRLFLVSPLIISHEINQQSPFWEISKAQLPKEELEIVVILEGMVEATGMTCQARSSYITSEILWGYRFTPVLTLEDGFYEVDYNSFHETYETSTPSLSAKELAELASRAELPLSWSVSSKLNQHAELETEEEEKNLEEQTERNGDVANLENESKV
Calls only; i = inactive. The list is partial; the hit share may differ from the screen's.

| smiles | GIRK2 act |
| --- | --- |
| CCOc1cc(NC(=O)C2CC(=O)N(c3cccc(OC)c3)C2)ncn1 (centres undefined) | i |
| COc1ccc(CNC(=O)NCC2COC3(CCCCC3)O2)cc1OC (centres undefined) | i |
| Cc1cccc(CN2CCc3nc(C)n(CC(=O)NCCC(C)C)c(=O)c3C2)c1 | i |
| COc1cc(/C=C2\Oc3cc(OC(=O)c4cccc([N+](=O)[O-])c4)ccc3C2=O)cc(OC)c1OC | i |
| O=C(CN1CC(c2nc(Cc3ccccc3)no2)C1)Nc1ccccc1C(F)(F)F | i |
| COc1cc(C(=O)NS(=O)(=O)c2ccccc2C)ccc1Cc1cn(C)c2ccc(NC(=O)OC3CCCC3)cc12 | i |
| Cc1ccc(C(=O)NCCc2nnc3ccc(N4CCCCCC4)nn23)cc1 | i |
| CCc1cnc2c(c1SCCN(CC)CC)c(=O)n(C)c(=O)n2C | i |
| O=C(NCCC(O)c1ccccc1)Nc1cccc(C(F)(F)F)c1 (centres undefined) | i |
| CCOc1ccc2ccccc2c1C(=O)NCCC(O)C(C)(C)C (centres undefined) | i |
| COc1ccc(CNC(=O)N2CCN(c3ccc(-c4noc(C(C)C)n4)cn3)CC2)cc1 | i |
| Cn1c(N2CCN(Cc3ccccc3)CC2)nc2c1c(=O)n(Cc1ccccc1)c(=O)n2C | i |
| COc1ccc(S(=O)(=O)N2CCN=C2SCc2ccc(C(F)(F)F)cc2)cc1 | i |
| O=C(c1ccco1)N1CC(Oc2nc3c(C(F)(F)F)cccc3s2)C1 | i |
| COc1ccc2c(c1)C=C(C(=O)Nc1cc(OC)ccc1OC)C=CO2 | i |
| C=CCn1c(=O)c2c(nc3n(C(C)c4ccccc4)c(C)c(C)n23)n(C)c1=O (centres undefined) | i |
| COCCN1CCC(NC(=O)COC)CC1 | i |
| NC(=O)c1ccccc1OCC#CCNC(=O)C1(c2ccc(Cl)cc2)CCCC1 | i |
| CCOC(=O)C1=C(C)NC(C)=C(C(=O)OC)C1c1cccc([N+](=O)[O-])c1 (centres undefined) | i |
| CC(Cc1ccco1)NC(=O)c1cc(-c2ccc(F)cc2)nn1C (centres undefined) | i |
| COCCn1c(=O)c2c(nc3n(-c4ccc(F)cc4)c(C)cn23)n(C)c1=O | i |
| CCCCC(C)(C)[C@H](O)/C=C/[C@@H]1[C@@H](C/C=C\CCCC(=O)O)[C@H](O)C[C@H]1O | i |
| CCCS(=O)(=O)N1CCN(CC(F)(F)F)CC1 | i |
| Cc1ccc(NC(=O)CSc2nnc3scc(-c4ccccc4)n23)cc1 | i |
| Cc1cc2nnc(SCC(=O)Nc3nsc(-c4ccccc4)n3)n2c2ccccc12 | i |

Of the compounds above, these have an aryl methoxy group:
| smiles | GIRK2 act |
| --- | --- |
| CCOc1cc(NC(=O)C2CC(=O)N(c3cccc(OC)c3)C2)ncn1 (centres undefined) | i |
| COc1ccc(CNC(=O)NCC2COC3(CCCCC3)O2)cc1OC (centres undefined) | i |
| COc1cc(/C=C2\Oc3cc(OC(=O)c4cccc([N+](=O)[O-])c4)ccc3C2=O)cc(OC)c1OC | i |
| COc1cc(C(=O)NS(=O)(=O)c2ccccc2C)ccc1Cc1cn(C)c2ccc(NC(=O)OC3CCCC3)cc12 | i |
| COc1ccc(CNC(=O)N2CCN(c3ccc(-c4noc(C(C)C)n4)cn3)CC2)cc1 | i |
| COc1ccc(S(=O)(=O)N2CCN=C2SCc2ccc(C(F)(F)F)cc2)cc1 | i |
| COc1ccc2c(c1)C=C(C(=O)Nc1cc(OC)ccc1OC)C=CO2 | i |

The results go on:
| smiles | GIRK2 act |
| --- | --- |
| Cn1nc(-c2ccc(F)cc2)cc1C(=O)NCC1COC2(CCCCC2)O1 (centres undefined) | i |
| O=C(NC1(c2nc(C3CC3)no2)CCCCC1)c1ccc(F)c(F)c1 | i |
| Cn1c(=O)c(Oc2ccc(F)cc2F)cc2cnc(NCCS(C)(=O)=O)nc21 | i |
| Cc1ccccc1C(=O)N1CCN(c2oc(/C=C/c3ccc(Cl)cc3)nc2C#N)CC1 | i |
| C=CCn1c(=O)[nH]c2cc(C(=O)N3CC=C(c4ccccc4)CC3)ccc2c1=O | i |
| O=C(NCc1cccc2ccccc12)Nc1ccc2c(c1)CCCN2C(=O)C1CC1 | i |
| CCOc1cc(=O)c(C(=O)Nc2ccc3c(c2)OCO3)nn1-c1ccccc1 | i |
| O=C(CSc1nnc(N2CCN(C(=O)c3ccc4c(c3)OCO4)CC2)s1)NCc1ccco1 | i |
| COC(=O)c1sccc1NC(=O)Cn1ccn2nc(-c3ccccc3)cc2c1=O | i |
| COc1ccc(CCC(=O)Nc2ccc(Cn3cnc(C(=O)Nc4cc(C)ccc4OC)c3)cc2)cc1 | i |
| O=C(NC1CCCCC1)N1CCN(CC(F)(F)F)CC1 | i |
| CS(=O)c1ccc(-c2nc(-c3ccc(F)cc3)c(-c3ccncc3)[nH]2)cc1 (centres undefined) | i |
| Cc1ccccc1CN(c1ccc(C(C)C)cc1)S(=O)(=O)c1cccn2cnnc12 | i |
| Cc1cccc2sc(N3CC(OC(=O)c4cncc(Br)c4)C3)nc12 | i |
| O=C(C1CCCN(c2ccc(-c3ccccc3)nn2)C1)N1CCC2(CC1)OCCO2 (centres undefined) | i |
| Cc1nn(C(C)(C)C)c(OC(=O)c2ccccc2[N+](=O)[O-])c1S(=O)(=O)c1ccccc1 | i |
| CCCNC(=O)Cn1nc2c(c1NC(=O)COC)CSC2 | i |
| O=C(/C=C/c1ccccc1)N1CCC(c2nnc(-c3ccoc3)o2)CC1 | i |
| COc1ccccc1S(=O)(=O)NCCc1csc(-n2nc(C)cc2C)n1 | i |
| CCOc1ccccc1-n1c(-c2ccccc2)cn2c3c(=O)[nH]c(=O)n(C)c3nc12 | i |
| O=C(CN1CC(c2nc(C3CC3)no2)C1)N1CCC(Cc2ccccc2)CC1 | i |
| Cc1nn(C(=O)N2CCOCC2)c(C)c1Br | i |
| O=S(=O)(c1ccc2c(c1)CCCC2)N1CCOC2(CCOCC2)C1 | i |
| O=C(/C=C\c1cccs1)Nc1ccccc1NC(=O)c1ccccc1Cl | i |
| CN1C(=O)C(C(=O)Nc2ccc(OC(F)(F)F)cc2)C2CC1(C)Oc1ccccc12 (centres undefined) | i |

Two entries picked at random from the list so far, as already listed:
| smiles | GIRK2 act |
| --- | --- |
| Cc1ccccc1CN(c1ccc(C(C)C)cc1)S(=O)(=O)c1cccn2cnnc12 | i |
| COc1ccc(CCC(=O)Nc2ccc(Cn3cnc(C(=O)Nc4cc(C)ccc4OC)c3)cc2)cc1 | i |

Further structures:
| smiles | GIRK2 act |
| --- | --- |
| O=C(COc1ccccc1F)N1CC(c2nc(-c3ccccn3)no2)C1 | i |
| CCCN(Cc1ccsc1)C(=O)NC(c1ccccc1)c1ccccc1 | i |
| Cc1cc(C)n(-c2nc(CCNS(=O)(=O)c3cccc(Cl)c3)cs2)n1 | i |
| CCC(=O)NC1CCN(CCOC)CC1 | i |
| Cc1ccc([N+](=O)[O-])cc1S(=O)(=O)N1CCCCCC1 | i |
| Cc1noc(-c2ccc(N3CCCC(C(=O)Nc4ccc5c(c4)OCCO5)C3)nc2)n1 (centres undefined) | i |
| O=S(=O)(NCC(O)c1ccoc1)c1cccc2ccccc12 (centres undefined) | i |
| CC(=O)CC1(O)C(=O)N(CCCOc2ccc3ccccc3c2)c2c(C)cccc21 (centres undefined) | i |
| CCN(C1CCCCC1)S(=O)(=O)CCNC(=O)c1ccc2c(c1)OCO2 | i |
| CCNC(=O)c1csc(NC(=O)Nc2ccccc2OCC)n1 | i |
| C[C@]12CC[C@@H]3c4ccc(OS(=O)(=O)O)cc4CC[C@H]3[C@@H]1CCC2=O | i |
| Cc1cc(C(=O)Nc2nnc(C3CC(=O)N(c4ccccc4)C3)o2)c(C)o1 (centres undefined) | i |
| Cc1ccc(C(O)CNC(=O)/C=C/c2ccc3c(c2)OCO3)o1 (centres undefined) | i |
| COc1cccc(/C=C2\Oc3c(ccc4c3CN(Cc3cccnc3)CO4)C2=O)c1OC | i |
| CC(=O)Nc1ccc(S(=O)(=O)N2CCCCCC2)cc1 | i |
| CC1Cc2ccccc2N1C(=O)c1nnn(-c2ccc(Cl)cc2)n1 (centres undefined) | i |
| COCCn1c(C(=O)Nc2cc(Cl)ccc2OC)cc2c(=O)n(C)c(=O)n(C)c21 | i |
| Cc1cc(=O)n2c(n1)SCC2CC(=O)Nc1cc(N2CCOCC2)ncn1 (centres undefined) | i |
| Cc1noc(C)c1CCC(=O)N1CCN(C(=O)c2cnn3ccccc23)CC1 | i |
| CCc1ccc(N2CC(C)Cn3c2nc2c3c(=O)n(CC(N)=O)c(=O)n2C)cc1 (centres undefined) | i |
| CN(C)c1cccc(C(=O)NCC2CCN(C(=O)c3ccoc3)CC2)c1 | i |
| NS(=O)(=O)c1ccc(CCNC(=O)CNC(=O)c2c[nH]c3ccccc23)cc1 | i |
| CCCCN(C)C(=O)CN1CN(c2ccc(C)cc2)c2ncccc2S1(=O)=O | i |
| CCNC(=O)C(=O)c1cn(CC(=O)N2CCOCC2)c2ccccc12 | i |
| COC(=O)c1cn(Cc2ccc(C(C)(C)C)cc2)nc1S(=O)(=O)N1CCCC(C)C1 (centres undefined) | i |
| Cc1ccc(-c2csc3c(=O)[nH]c(N4CCN(c5ccccc5)CC4)nc23)cc1 | i |
| O=C(NCCC(O)c1ccc2c(c1)OCO2)C(=O)Nc1ccon1 (centres undefined) | i |
| O=C(NCc1ccccn1)c1ccc(=O)n(Cc2cccc(F)c2)n1 | i |
| CCOC(=O)c1cnn2ccc(NC(=O)C34CC5CC(CC(C5)C3)C4)cc12 | i |
| O=C1NC(=NCCc2ccc(Cl)cc2)S/C1=C\c1ccc2ncccc2c1 | i |
| COc1ccc(NC(=O)Cn2cnc3c(-c4ccncc4)nsc3c2=O)cc1OC | i |
| COc1ccc(/C=C/c2nn3c(-c4ccccc4)nnc3s2)cc1OC | i |
| CCn1c(=O)c2c(nc3n2CC(C)=NN3CCCO)n(C)c1=O | i |
| COC(=O)c1ccc(Oc2coc3c4c(ccc3c2=O)OCN(C2CCS(=O)(=O)C2)C4)cc1 (centres undefined) | i |
| O=C(CC1SC(N2CCOCC2)=NC1=O)Nc1ccc2c(c1)OCO2 (centres undefined) | i |
| O=C(NCCc1ccco1)C(=O)Nc1cc(F)ccc1F | i |
| Cc1cc(C)cc(-n2cc(C(=O)N3CCC(NC(=O)CCC4CCCC4)CC3)nn2)c1 | i |
| Cc1nn(C(C)(C)C)c(OC(=O)C2CCCCC2)c1Sc1ccccc1 | i |
| O=C(CCCn1c(=S)[nH]c2cc3c(cc2c1=O)OCO3)N1CC=C(c2ccccc2)CC1 | i |
| O=C(NCCCn1ncccc1=O)c1cccc(-n2ccc3ccccc32)c1 | i |
| N#C/C(C(N)=O)=C1/SC(Cc2cc(Cl)ccc2Cl)C(=O)N1c1ccccc1 (centres undefined) | i |
| COc1ccc(CNc2nccn(-c3cccc(C(F)(F)F)c3)c2=O)cc1 | i |
| Cc1cc(C(O)CCNC(=O)C(=O)NCc2ccc3c(c2)OCO3)c(C)o1 (centres undefined) | i |
| CN1CCOc2ccc(NC(=O)c3ccc4nsnc4c3)cc2C1=O | i |
| COc1ccc(-c2c(C#N)c(N)nc3c2c(C)nn3-c2ccc(F)cc2)cc1OC | i |
| Cc1cc(NC(=O)Cn2c(=O)n(Cc3ccccc3)c(=O)c3nccnc32)ccc1Br | i |
| CS(=O)(=O)NCC1CCC(C(=O)NCCC2=CCCCC2)CC1 (centres undefined) | i |
| CSc1ccc2nc(N(CC3CCCO3)C(=O)c3ccc(Cl)s3)sc2c1 (centres undefined) | i |
| O=C(C1CC=CCC1)N1CCC2(CC1)OCCCO2 (centres undefined) | i |
| COc1ccccc1OCC(=O)Nc1ccc(S(=O)(=O)N2CCN(c3cnccn3)CC2)cc1 | i |

Gathered by group, the compounds so far with a cyano group.
| smiles | GIRK2 act |
| --- | --- |
| Cc1ccccc1C(=O)N1CCN(c2oc(/C=C/c3ccc(Cl)cc3)nc2C#N)CC1 | i |
| N#C/C(C(N)=O)=C1/SC(Cc2cc(Cl)ccc2Cl)C(=O)N1c1ccccc1 (centres undefined) | i |
| COc1ccc(-c2c(C#N)c(N)nc3c2c(C)nn3-c2ccc(F)cc2)cc1OC | i |

(more compounds)
| smiles | GIRK2 act |
| --- | --- |
| O=C(NCCc1ccccc1)c1ccc2c(=O)n(-c3ccccc3)c(=O)[nH]c2c1 | i |
| COc1ccc(-c2nc(-c3cn(Cc4ccc(C)cc4)nn3)no2)c(OC)c1 | i |
| COCCCn1cnc2c(-c3ccccc3)cn(CC(=O)Nc3cc(Cl)ccc3OC)c2c1=O | i |
| O=C(CCSc1ccccc1)N1CCC(CSC2=NCCS2)CC1 | i |
| CCOC(=O)N1CCN(CC(O)COCCOc2c(C)cccc2C)CC1 (centres undefined) | i |
| Cn1c(=O)[nH]c(=O)c2c1nc(NCCc1ccccc1)n2CC(=O)c1ccccc1 | i |
| COCCCNc1nc2c(c(=O)n(Cc3ccccc3)c(=O)n2C)n1C | i |
| CCn1c(NCc2ccco2)nc2c1c(=O)n(C)c(=O)n2C | i |
| CCc1nc(OCC(=O)Nc2ccc(C)c(C)c2)c2ccccc2n1 | i |
| O=C(NCc1ccc(F)cc1F)c1ccc(OCC(=O)C2CC2)cc1 | i |
| COc1ccc2c(c1)C=C(C(=O)Nc1cc(C(C)=O)ccc1OC)C=CO2 | i |
| Cn1c(=O)c2c(ncn2Cc2ccccc2Cl)n(C)c1=O | i |
| CC(C)CNC(=O)CCn1c(=O)c2ccccc2n2c(SCC#N)nnc12 | i |
| Cc1ccc(S(=O)(=O)NCCC(=O)Nc2ccc(F)cc2)c(C)c1N(C)S(C)(=O)=O | i |
| Cn1c(=O)c2c(ncn2CC(=O)N2CCC3(CC2)OCCS3)n(C)c1=O | i |
| COc1ccc(-c2ccc(C(=O)Nc3ccc(S(N)(=O)=O)cc3)o2)c([N+](=O)[O-])c1 | i |
| CCN1CCN(C(=O)c2csc3nc(-c4ccc(F)cc4)cn23)CC1 | i |
| O=C(CSCc1ccccc1)N1CCN(Cc2nc(C3CC3)cs2)CC1 | i |
| CC(C)OCCCNC(=O)C1CCCN(c2nc3c(-c4ccccc4)csc3c(=O)[nH]2)C1 (centres undefined) | i |
| CCN1CCCC1CNC(=O)c1cc(S(=O)(=O)N2CCCCC2)ccc1OC (centres undefined) | i |
| COCCc1nnc(NC(=O)c2cc(-c3ccccc3)on2)o1 | i |
| CC(C)c1cc(=O)[nH]c(-n2nc(-c3cccs3)cc2NC(=O)c2cc(Cl)ccc2Cl)n1 | i |
| CN(C)CC1COCCN1C(=O)c1cc(C2CC2)on1 (centres undefined) | i |
